# NPYLR7 agonist = agonists of mosquito NPYLR7 receptor, primary screen, cell-based, Aedes aegypti, calcium fluorescence, mosquito biting behavior; Aedes aegypti neuropeptide Y-like receptor 7 (NPYLR7); 270,000 tested, 0.15% active; HEK293T NPYLR7/Galpha15, GCaMP6s calcium fluorescence; AID 1259423, 2018; activation, % at 10 µM; in the data active means activation above about 40%;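 further: 0% = vehicle and 100% = reference agonist at the receptor; some compounds past the cut are filed as inactive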
# NPYLR7 agonist max-min = recorded beside NPYLR7 agonist, whose call it bears; activation, %; measured here: Max-Min RFU normalised activation; some inactives read as strong as hits;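 span of the calcium signal over five minutes; 0% = vehicle and 100% = native peptide agonist; compound fluorescence can raise it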
# The depositor's hits bear a star.
SMILES,NPYLR7 agonist,NPYLR7 agonist max-min
CCNC(=O)N1CCC2(CC1)NC(=O)c1cc(Br)ccc1N2,1,12
COc1ccc(Nc2cc(C)nc(N3CCN(C(=O)CCCc4ccccc4)CC3)n2)cc1,11,2
Cc1ccc(C)c(S(=O)(=O)N2CCN(C(=O)CCc3nc(-c4ccc(F)cc4)no3)CC2)c1,7,7
Cc1nc2c(cnn2C(C)C)c(C)c1CCC(=O)NC1CCCC1,10,8
COc1ccc(-c2cccc(-c3cccc(NC(=O)c4cc(F)ccc4C)c3)n2)cc1,11,10
CN(CCn1ccnc1)c1ccc(-c2nc(-c3cccc(Cl)c3)no2)cn1,9,-1
Cc1cc(C)cc(C(O)c2ncc(-c3cccc(F)c3)[nH]2)c1 (stereo not given),0,1
CC1CCc2sc3ncnc(N4CCN(C)CC4)c3c2C1 (stereo not given),8,4
Cc1ccccc1C(=O)OC1OC(=O)C(Cl)=C1Cl (stereo not given),-8,-10
O=C(Cc1cccc(F)c1)NCc1ccc(Cl)s1,2,1
CS(=O)(=O)Nc1ccc(Cl)c(S(=O)(=O)N2CCCCC2)c1,9,14
CC1CCN(CN2C(=O)C(C)(C)C2c2ccccc2)CC1 (stereo not given),-8,-9
CC(C)OCCCNC(CC(=O)Nc1ccc(F)cc1)C(=O)O (stereo not given),-3,-4
CCOC1O[C@H]([C@@H](COCc2ccccc2)OCc2ccccc2)[C@H](OCc2ccccc2)[C@H]1O (stereo not given in full),11,1
c1cnc2c(-c3nccn3CCCN3CCOCC3)cccc2c1,5,2
CC(=O)Nc1ccc(S(=O)(=O)Oc2ccc(Cl)cc2CNCc2ccc(F)cc2)cc1,-2,-5
CCS(=O)(=O)Oc1ccc(CN(C(=O)Nc2ccc(Br)cc2)C(C)C)cc1,-7,-11
COc1ccc(-c2ccc(C(=O)NC(Cc3ccccc3)c3ccccc3)s2)c(OC)c1OC (stereo not given),2,-1
COc1cc(-c2ccc(C(F)(F)F)cn2)cc2c1OCCN(C(=O)CNC(C)=O)C2,-8,-11
CC(Nc1nccn2cnnc12)c1ccccc1 (stereo not given),12,8

# Reformatted: entries from further up
> CN(CCn1ccnc1)c1ccc(-c2nc(-c3cccc(Cl)c3)no2)cn1
- NPYLR7 agonist: 9
- NPYLR7 agonist max-min: -1

> Cc1cc(C)cc(C(O)c2ncc(-c3cccc(F)c3)[nH]2)c1 (stereo not given)
- NPYLR7 agonist: 0
- NPYLR7 agonist max-min: 1

> CC1CCc2sc3ncnc(N4CCN(C)CC4)c3c2C1 (stereo not given)
- NPYLR7 agonist: 8
- NPYLR7 agonist max-min: 4

> Cc1ccccc1C(=O)OC1OC(=O)C(Cl)=C1Cl (stereo not given)
- NPYLR7 agonist: -8
- NPYLR7 agonist max-min: -10

# Following part:
SMILES,NPYLR7 agonist,NPYLR7 agonist max-min
CN(C)S(=O)(=O)c1cc(C(=O)O)c(N2CCCCC2)cc1Cl,2,1
CCOc1ccc(N2C(=O)CSC2c2ccc(NS(=O)(=O)c3cccc4cccnc34)cc2)cc1 (stereo not given),-7,-7
O=C(Cc1ccccc1F)Nc1nnc(SCc2ccccc2F)s1,0,10
Cc1c(C(=O)NCc2ccccc2)sc(=O)n1Cc1ccc2c(c1)OCO2,9,-1
COc1ccc(Nc2cc3[nH]c(-c4ccccc4)cc3cn2)cc1,3,9
CC1(C)OC(=O)N2CCN3C(=O)OC(C)(C)C3(C)C(Br)=C21 (stereo not given),-3,-9
O=C(c1cccc(OC(F)F)c1)N1CCC(n2nc(-c3ccccc3)cc2-c2ccccc2)CC1,23,13
CC(NC(=O)CCN1CCN(c2cccc(C(F)(F)F)c2)CC1)c1ccccc1 (stereo not given),5,1
CCCCOC(=O)N1CCCn2nc(C(=O)N3CCOCC3)cc2C1,8,4
COc1cccc(C(=O)Nc2ccc(-c3nc4ccccc4o3)cc2)c1,-6,-12
Cn1cc(CC(=O)N2CCCC3(CC2)CNC(=O)O3)c2ccccc21 (stereo not given),2,-1
Cn1nc(N2CCN(c3ccc(O)cc3)CC2)c(=O)n(C)c1=O,-5,-10
O=S(=O)(c1ccc2oc(-c3ccncc3)nc2c1)c1ccc2oc(-c3ccncc3)nc2c1,5,5
Cc1cc(CC(C)NC(=O)c2csc3nc(-c4ccccc4)cn23)n[nH]1 (stereo not given),3,2
Cc1ccc(OC(C)C(=O)Nc2ccc3c(c2)CCC3)cc1 (stereo not given),1,0
COc1ccc(-c2ccccc2)cc1NC(=O)C1(C)CCN1CC(C)C (stereo not given),2,1
CCN(CC)C(=O)Oc1ccc2c(ccn2Cc2cccc(C)c2)c1-c1ccc(OC)cc1,27,23
CCNC(=O)N1C[C@H](OC)[C@H]2C[C@@H]1Cc1c2n(CC(=O)NC)c2ccccc12,19,18
Cc1cccc(Cn2cccc2CN(CCC(C)C)Cc2cc(F)ccc2F)c1,1,9
COc1cccc(-c2cc3c(cn2)ncn3-c2cccc(C(F)(F)F)c2)c1,14,5

# Six successive compounds from above, quoted:
SMILES,NPYLR7 agonist,NPYLR7 agonist max-min
CCNC(=O)N1CCC2(CC1)NC(=O)c1cc(Br)ccc1N2,1,12
COc1ccc(Nc2cc(C)nc(N3CCN(C(=O)CCCc4ccccc4)CC3)n2)cc1,11,2
Cc1ccc(C)c(S(=O)(=O)N2CCN(C(=O)CCc3nc(-c4ccc(F)cc4)no3)CC2)c1,7,7
Cc1nc2c(cnn2C(C)C)c(C)c1CCC(=O)NC1CCCC1,10,8
COc1ccc(-c2cccc(-c3cccc(NC(=O)c4cc(F)ccc4C)c3)n2)cc1,11,10
CN(CCn1ccnc1)c1ccc(-c2nc(-c3cccc(Cl)c3)no2)cn1,9,-1

# (cont.)
SMILES,NPYLR7 agonist,NPYLR7 agonist max-min
Cc1nc2ccccc2nc1N1CCN(C(=O)N2CCOCC2)CC1,25,23
CCOC(=O)c1nn(-c2ccccc2C)c(=O)cc1OCC(=O)Nc1ccc(C)cc1,10,7
CC(=O)c1cccc(S(=O)(=O)N2CCCC2c2ccc3c(c2)OCCCO3)c1 (stereo not given),1,28
CCOC(=O)C1=C(CC)NC2=C(C(=O)CCC2)C1c1ccc(Br)cc1 (stereo not given),-1,-3
CCc1cnc(-c2cc3ccccc3o2)nc1,14,9
COc1ccc(C(C2Sc3nc(C)nn3C2=O)N2CCN(C)CC2)cc1OC (stereo not given),9,7
CCOC(=O)C1=C(C)NC2=C(C(=O)CCC2)C1c1cc2c(cc1Br)OCO2 (stereo not given),23,11
O=C(CCCn1ncn2c(cc3occc32)c1=O)NC1CCCCC1,-3,-3
CSCCC(=O)N1CCN(c2nc3nccc(-c4ccc(N5CCOCC5)cc4)n3n2)CC1,-2,-7
CC(C(=O)c1ccc(-c2ccccc2)cc1)[n+]1ccccc1 (stereo not given),-14,-18
CCOc1cn2c(cc1=O)C(=O)N(CCNC(=O)c1ccc(C(F)(F)F)cc1)CC2,8,-2
Nc1ccc(NS(=O)(=O)c2ccc(F)cc2)cc1,-2,-3
CC(=O)C(C)Oc1ccc2ccc(=O)oc2c1 (stereo not given),2,3
Cc1[nH]c2ccccc2c1CN1CCC(O)(Cc2cc(-c3ccccc3)no2)CC1,6,3
Cc1ccc(-c2cccc(CN3CC(c4ccccn4)C3)c2)o1,21,10
O=C1CC(c2ccc3c(c2)OCO3)CC2=Nc3ccccc3NC(c3ccc4c(c3)OCO4)C12 (stereo not given),-2,-2
O=C(Nc1ccc(N2CCOCC2)cc1N1CCOCC1)c1cnc2c(cnn2Cc2ccccc2)c1,-1,5
CCc1ccc(NC(=O)c2cc(C(C)O)c[nH]2)cc1 (stereo not given),4,13
CCCCNCC(=O)NCC(=O)Nc1ccc(C)cc1,-8,-21
Cc1ccccc1-n1nc(C(C)(C)C)cc1NC(=O)C(Cc1ccccc1)NC(=O)C(Cl)c1ccccc1 (stereo not given),14,15
O=C1C2C3C=CC(C4CC34)C2C(=O)N1c1ccc(I)cc1 (stereo not given),2,1
CC1Cc2ccccc2N1C(=O)C1=NCC(=O)N(c2ccccc2)N1 (stereo not given),-2,-2
CCc1noc(C(C)N2CCN(C(=O)Nc3ccc(F)cc3)CC2)n1 (stereo not given),-3,-5
Cc1cccc(Cn2c(=O)c(C(=O)NCc3ccco3)nn(-c3cccc(Cl)c3)c2=O)c1,-3,-2
CCC(Sc1nc(C)cc(=O)[nH]1)C(=O)Nc1cc(C)on1 (stereo not given),0,-2
COc1ccc(C2c3c(n[nH]c3-c3cccc([N+](=O)[O-])c3)OC(=N)C2C#N)cc1OC (stereo not given),-4,-9
CCOC(=O)c1nn(-c2ccc(Br)cc2)cc1O,-1,-2
CCN1CCCC1CN(CC1CCN(CCOC)CC1)C(=O)c1cnc2ccccc2c1 (stereo not given),8,3
CCOC(=O)N1CCN(c2c(NCCN3CCCC3)c(=O)c2=O)CC1,7,6
CCCNC(=O)N1CCC(Cc2cccc(C(F)(F)F)c2)(C(=O)OCC)CC1,1,-3
Cc1cccc2c1C(=O)NC(c1ccc(-c3cccs3)cc1F)N2 (stereo not given),6,4
CCC(c1nc2ccccc2c(=O)n1-c1ccc(Br)cc1)N(Cc1ccccc1)C(=O)c1ccc(Br)cc1 (stereo not given),-2,8
c1ccc(N=P(c2nc3ccccc3o2)(N2CCOCC2)N2CCOCC2)cc1,-4,-9
CCOc1cc(/C=C2/NC(=S)NC2=O)ccc1OCC(=O)O,-3,-3
COc1ccc(OC)c(-c2nc3nnc(C)n3[nH]2)c1,-16,-24
Cc1cc(NC(=O)c2cccc([N+](=O)[O-])c2C)n(-c2nc(C)c(C)c(=O)[nH]2)n1,8,1
CCSc1nnc(NC(=O)c2ccc(Cl)c(Cl)c2)s1,7,4
N#Cc1ccc(OCC2CN3Cc4ccccc4CC3C(=O)O2)cc1 (stereo not given),1,2
CCc1cnc(C(C)NCc2ccn[nH]2)s1 (stereo not given),6,1
CCNc1ccnc(N(C)CCc2ccccn2)n1,-3,-3
NC(=O)CN(CCC1CCCCC1)Cc1cccc2cccnc12,-6,-8
C=C(C)CN(CC)Cc1cc(I)cc(I)c1O,-7,-3
CC(=O)NCc1ccc(-c2csc(NC(=O)CNC(=O)c3ccc4c(c3)OCO4)n2)o1,-6,-8
O=C(CCCc1cccs1)Nn1cnc2sccc2c1=O,-4,-2
COc1ccc(C2=NN3C(C2)c2ccccc2OC3c2ccc(F)cc2)cc1OC (stereo not given),2,1
CCc1ccc2nc(NC(=O)c3ccc(C)c(NC(=O)c4ccco4)c3)sc2c1,22,19
O=C(Nc1nnc(-c2ccccc2)o1)c1cccc(NS(=O)(=O)c2ccc(F)cc2)c1,-1,-1
Cc1nc(C(=O)N(C)Cc2csc(-c3ccccc3)n2)cs1,10,7
COc1cccc(CNc2ccn3nccc3n2)c1,3,1
COc1ccc(N2CN(C(=O)CN(CC(C)C)C(=O)c3ccc(-c4ccccc4)cc3)CC2=O)cc1,-13,-3
Cc1nn2c(NCc3cccnc3)cc(C(C)(C)C)nc2c1-c1ccccc1,-3,-6
C=C(C)COc1ccccc1C(=O)N[C@H]1COC[C@@H]1OCC,0,-2
OCCC1CN(C/C=C/c2ccco2)CCN1Cc1ccccc1 (stereo not given),5,7
Cn1nc(C2CCN(c3cnccn3)CC2)n(-c2ccccc2)c1=O,2,-2
C(#CC1(N2CCOCC2)CCCC1)c1ccccc1,-1,-4
O=c1n(C[C@H](O)CO)nc(C2CCNCC2)n1-c1ccccc1,14,12
CCCCNc1cc(C)nc2c(-c3ccc(Cl)cc3)c(C)nn12,-1,-4
CC(C)(Oc1ccc(Cl)cc1)C(=O)NCc1ccoc1,-2,-3
Cc1ccc(CC(=O)Nc2ccc(CNS(C)(=O)=O)cc2)s1,3,0
CCN(CC(=O)NC(C)(C)C)Cc1c(O)ccc2cc(Br)ccc12,-1,0

# Profiles, looked up by structure:
# COc1ccc(N2CN(C(=O)CN(CC(C)C)C(=O)c3ccc(-c4ccccc4)cc3)CC2=O)cc1 as listed: NPYLR7 agonist: -13; NPYLR7 agonist max-min: -3
# Cc1nn2c(NCc3cccnc3)cc(C(C)(C)C)nc2c1-c1ccccc1 as listed: NPYLR7 agonist: -3; NPYLR7 agonist max-min: -6

# (further entries)
SMILES,NPYLR7 agonist,NPYLR7 agonist max-min
O[C@@H]1CN(c2ncnc3[nH]ccc23)CC[C@H]1c1ccc2c(c1)OCO2,2,1
CCOC(=O)C1CCCN(C(=O)c2ccc(CSc3nc(N4CCN(C)CC4)cc(C(F)(F)F)n3)cc2)C1 (stereo not given),4,17
C=CCCC(=O)NC1CCCN(CC2CCCCC2)C1 (stereo not given),8,3
CCCCc1ccc(C(=O)N2CCN(C(C(=O)Nc3cccc(F)c3)C3CCCC3)CC2)cc1 (stereo not given),9,14
Cc1cc(NC(=O)CSC(C)CO)n(C)n1 (stereo not given),-1,-8
Cc1cc(NC(=O)C(C)N(C)CC23CC4CC(CC(C4)C2)C3)no1 (stereo not given),4,3
NC(=O)C1CCN(C(c2ccco2)C2Sc3nc(-c4ccco4)nn3C2=O)CC1 (stereo not given),0,0
Cc1ccc(C(=O)N2CCCC3CCCC32)c(=O)[nH]1 (stereo not given),1,-1
Cc1noc(-c2cccs2)c1C(=O)N[C@@H]1CCCc2ccccc21,6,18

# An excerpt (hit frequency here may not be typical).
